Screening results deposited in PubChem BioAssay by Broad Institute.
Ecoli rRNA inh: inhibits bacterial ribosomal RNA function over humanized ribosomes; 350,000 compounds, 1.6% hits; E. coli WT GFP vs humanized-ribosome RFP mutants, fluorescence, 24 h; hits give low values; DMSO median 0, no signal -100; GFP signal change (wild-type ribosome), % (concentration not given with the values); AID 720706;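 active means significant combined selectivity score with lowered wild-type GFP, culture density cut under 30%, mutant RFP and density less affected; inactive means any of these conditions unmet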; further: one replicate is shown; some compounds called inactive have numbers as strong as hits
FGF22 binding: shifts melting point of recombinant human FGF22; Q9HCT0; AID 651658; 340,000 compounds, 1.5% hits; calls only at 9.99 µM; recombinant FGF22 thermal shift, SYPRO orange fluorescence; percent of sucrose octasulfate shift, DMSO zero;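 active means melting point raised past a set limit in the mean and every replicate; three in four hits are not shown here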
Target sequence (Q9HCT0 whole entry, looked up): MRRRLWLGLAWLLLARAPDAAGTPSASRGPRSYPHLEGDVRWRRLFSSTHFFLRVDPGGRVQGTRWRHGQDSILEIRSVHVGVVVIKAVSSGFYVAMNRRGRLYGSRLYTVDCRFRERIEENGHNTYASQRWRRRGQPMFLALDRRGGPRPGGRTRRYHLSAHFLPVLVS
Ecoli rRNA inh OD600: second read-out of Ecoli rRNA inh, no call of its own (marks repeat the call); OD600 change, %; measured here: OD600 growth;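 optical density of the mix in the first replicate; 0 = DMSO median and -100 = no signal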
Ecoli rRNA inh RFP: recorded beside Ecoli rRNA inh, whose call it bears; RFP signal change, %; measured here: RFP humanized mutant strains;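 first replicate; 0 = DMSO median and -100 = no signal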
An asterisk follows results filed as active; i = inactive; x = no result given; + = active, no number. This is a subset; rates above refer to the full screens.

SMILES	Ecoli rRNA inh	Ecoli rRNA inh OD600	Ecoli rRNA inh RFP	FGF22 binding
COc1ccc(CN(C)C[C@H]2Oc3ccc(NC(=O)Nc4c(C)noc4C)cc3CC(=O)N([C@H](C)CO)C[C@@H]2C)cc1	2	12	-1.7	i
O=C(Nc1ccc(F)cc1)N[C@H]1CC[C@@H](CCn2cc(-c3ccccc3F)nn2)O[C@@H]1CO	-5	-11	-0.1	+
CCCNC(=O)N[C@@H]1CC[C@H](CCn2cc(C3CCCC3)nn2)O[C@H]1CO	0	13	-0.4	i
C[C@H]1CN([C@@H](C)CO)C(=O)Cc2cc(NS(=O)(=O)c3cn(C)cn3)ccc2O[C@H]1CN(C)C(=O)Nc1cccc2ccccc12	3	10	-0.3	i
C[C@@H]1CN([C@H](C)CO)C(=O)c2cc(NS(=O)(=O)c3cccs3)ccc2O[C@H]1CN(C)C(=O)Nc1ccc2c(c1)OCO2	-1	6	0.4	i
C=CCNc1ccc2c(c1)OC[C@@H](CC(C)C)NS2(=O)=O	9	1	-0.6	i
COc1ccc(S(=O)(=O)N(C)C[C@H]2Oc3c(NS(=O)(=O)c4ccc(C)cc4)cccc3C(=O)N([C@@H](C)CO)C[C@@H]2C)cc1	-2	-6	1.4	i
CS(=O)(=O)N1CCCCN2[C@H](CO)[C@@H](c3ccc(-c4cccc(C#N)c4)cc3)[C@H]2C1	3	12	-1.6	i
C[C@@H]1CN([C@@H](C)CO)C(=O)c2cc(C3=CCCC3)cnc2O[C@@H]1CN(C)C(=O)Nc1ccc(C(F)(F)F)cc1	1	10	2.9	i
CO[C@H]1CN(C)C(=O)c2cc(NC(=O)C3CCC3)ccc2OC[C@H](C)N(CC2CCCCC2)C[C@@H]1C	-3	-6	4.9	i
C[C@H]1CN([C@@H](C)CO)S(=O)(=O)c2ccc(C#CC3(O)CCCC3)cc2O[C@@H]1CN(C)C(=O)c1ccncc1	0	12	-1.8	i
C[C@@H]1CN([C@H](C)CO)C(=O)c2cccc(NS(=O)(=O)c3ccccc3)c2O[C@H]1CN(C)Cc1ccccc1	0	2	-0.1	i
Cc1noc(C)c1NC(=O)N(C)C[C@H]1OCCCC[C@H](C)Oc2ccc(NC(=O)CCC(F)(F)F)cc2C(=O)N([C@@H](C)CO)C[C@@H]1C	3	6	-1.9	i
O=C(Cc1ccncc1)NCC[C@@H]1CC[C@@H](NC(=O)C2CCCC2)[C@@H](CO)O1	1	-1	0.2	i
C[C@H]1CN([C@@H](C)CO)C(=O)c2c(c3ccccc3n2C)-c2ccccc2CO[C@@H]1CN(C)C(=O)Nc1cccc(C(F)(F)F)c1	1	1	0.0	i
COC(=O)C[C@H]1CC[C@H]2[C@@H](COC[C@@H](O)CN2CCC(F)(F)F)O1	5	14	0.1	i
Cc1ccc(S(=O)(=O)Nc2ccc3c(c2)C(=O)N([C@@H](C)CO)C[C@@H](C)[C@H](CN(C)CC2CC2)O3)cc1	6	7	2.6	i
O=C(C[C@@H]1C[C@H]2c3cc(NC(=O)CC4CC4)ccc3O[C@H]2[C@@H](CO)O1)NCc1cc(F)ccc1F	3	2	1.0	i
CCN1[C@@H]2Cn3c(ccc(-c4cccnc4)c3=O)[C@H]1[C@@H](C(=O)NCc1ccccc1)[C@@H]2CO	1	4	-4.1	i
Cc1ccccc1S(=O)(=O)NCC[C@@H]1CC[C@@H](NC(=O)Nc2cccc(Cl)c2)[C@H](CO)O1	-12	-27	5.6	i
C[C@@H]1CCCCO[C@H](CN(C)Cc2ccc3c(c2)OCO3)[C@H](C)CN([C@H](C)CO)C(=O)c2cc(NC(=O)NC3CCCCC3)ccc2O1	1	-22	5.2	i
Cc1ccc(NC(=O)Nc2ccc3c(c2)C(=O)N(C)[C@@H]2CC[C@@H](CC(=O)NCC(F)(F)F)O[C@H]2CO3)cc1	-2	-12	-0.8	i
COc1ccc(NC(=O)N(C)C[C@H]2OCCCC[C@@H](C)Oc3ccc(NS(C)(=O)=O)cc3C(=O)N([C@H](C)CO)C[C@@H]2C)cc1	1	0	-1.5	i
C[C@@H]1CN([C@@H](C)CO)C(=O)c2cc(NS(=O)(=O)c3ccc(F)cc3)ccc2O[C@@H](C)CCCCO[C@@H]1CN(C)C(=O)c1ccccc1	1	-15	0.4	i
O=C(C[C@H]1C=C[C@@H](NC(=O)c2ccncc2)[C@H](CO)O1)NCCc1ccncc1	2	2	-2.0	i
C[C@@H]1CN([C@H](C)CO)C(=O)c2cc(/C=C/c3ccccc3)cnc2O[C@H]1CN(C)Cc1ccccc1	-1	-20	23	i
COc1ccc(NC(=O)N(C)C[C@H]2OCCCC[C@H](C)Oc3ccc(NC(=O)C4CCCCC4)cc3C(=O)N([C@@H](C)CO)C[C@H]2C)cc1	1	4	-0.4	i
CC(=O)C1=C(C)N(Cc2ccc(Cl)cc2)C(=S)NC1c1ccc(Cl)cc1 (stereo not drawn)	4	-2	6.4	i
C[C@@H]1CN([C@H](C)CO)C(=O)c2cccc(NS(=O)(=O)c3ccc(F)cc3)c2O[C@H]1CN(C)C(=O)Nc1cccc2ccccc12	-2	-8	-0.5	i
CCNC(=O)C[C@H]1CC[C@@H]2[C@H](COC[C@@H](O)CN2C(=O)C2CC2)O1	2	17	-4.8	i
C[C@@H]1CN([C@H](C)CO)S(=O)(=O)c2ccc(C#Cc3ccccn3)cc2O[C@@H]1CN(C)Cc1ccc(F)cc1	-2	-9	7.5	i
CO[C@@H]1CN(C)C(=O)c2ccc(NC(=O)C3CCCCC3)cc2OC[C@H](C)NC[C@@H]1C	1	9	-1.1	i
C[C@H](CO)N1C[C@H](C)[C@@H](CN(C)Cc2ccc3c(c2)OCO3)Oc2c(NC(=O)c3ccncc3)cccc2C1=O	-8	-10	-0.4	i
C[C@@H]1CN([C@H](C)CO)S(=O)(=O)c2ccc(-c3ccc(C#N)cc3)cc2O[C@H]1CN(C)Cc1ccccn1	-6	-19	-4.8	i
COc1ccc(S(=O)(=O)Nc2ccc3c(c2)C(=O)N([C@@H](C)CO)C[C@H](C)[C@@H](CN(C)Cc2ccncc2)OCCCC[C@H](C)O3)cc1	1	0	0.8	i
C[C@@H](NC(=O)[C@@H]1[C@@H](CO)[C@@H]2Cn3c(ccc(C4=CCCCC4)c3=O)[C@H]1N2)c1ccccc1	0	-1	0.8	i
O=C(Nc1cc(F)ccc1F)N1C[C@@H]2[C@H](c3ccccc31)[C@@H](CO)N2CC1CCCC1	-4	7	-0.8	i
OC[C@@H]1[C@H](c2ccccc2)C2(CN(CCC(F)(F)F)C2)N1Cc1cccnc1	2	6	-1.7	i
Cc1cccc(S(=O)(=O)N2CC[C@@H]3[C@H]2c2cc(Br)ccc2N(C)[C@H]3CO)c1	-29	-59	3.4	i
O=C(C1CCOCC1)N1CC[C@H]2[C@H](CO)Nc3ccc(-c4cccc(F)c4)cc3[C@H]21	0	-6	0.3	i
CO[C@@H](CN(C)S(=O)(=O)c1ccc(Cl)cc1)[C@@H](C)CN(Cc1ccccc1Cl)[C@@H](C)CO	-28	-64	0.9	i
Cc1ccc(-c2ccc3c(c2)O[C@H](CN(C)Cc2ccc(F)cc2)[C@H](C)CN([C@@H](C)CO)S3(=O)=O)cc1	1	-4	-0.2	i
C[C@H]1CN([C@@H](C)CO)C(=O)c2cc(-c3ccccc3F)cnc2O[C@@H]1CN(C)C(=O)C1CCOCC1	-1	2	2.5	i
O=C(C[C@@H]1C[C@@H]2c3cc(NC(=O)Cc4ccncc4)ccc3O[C@@H]2[C@H](CO)O1)NCc1cc(F)ccc1F	-1	4	0.2	i
N#C[C@@H]1[C@H](c2ccc(C3=CCCCC3)cc2)[C@@H](CO)N1C(=O)Cc1ccncc1	0	-2	-0.9	i
CCC(=O)N1CCCCN2[C@H](CO)[C@H](c3ccc(-c4ccc(F)cc4)cc3)[C@H]2C1	2	4	0.9	i
C[C@@H]1CN([C@@H](C)CO)C(=O)c2cccc(NC(=O)Nc3ccc(C(F)(F)F)cc3)c2O[C@@H]1CN(C)CC1CC1	2	-27	5.5	i
O=C(NCC1CC1)[C@H]1[C@H](CO)[C@H]2Cn3c(ccc(-c4ccccc4)c3=O)[C@H]2N1CC1CC1	-4	-9	0.3	i
COc1ccc(-c2ccc3c(c2)O[C@H](CN(C)CC2CCOCC2)[C@@H](C)CN([C@H](C)CO)S3(=O)=O)cc1	-4	-10	7.1	i
O=C(Nc1cccc(F)c1)N1C[C@H]2[C@@H](c3ccccc31)[C@H](CO)N2C(=O)C1CCOCC1	1	11	0.1	i
O=C(C[C@@H]1CC[C@@H]2[C@H](COC[C@@H](O)CN2C(=O)Nc2cc(Cl)cc(Cl)c2)O1)N1CCOCC1	-37	-34	-10	i
Cc1noc(C)c1NC(=O)N[C@H]1CC[C@H](CCNC(=O)C2CCCCC2)O[C@@H]1CO	2	16	-0.7	i
CN(C)CCCNC(=O)C[C@@H]1CC[C@@H]2[C@H](COc3ccc(NC(=O)c4ccccc4F)cc3C(=O)N2C)O1	1	-5	0.4	i
COC(=O)[C@H]1[C@H](CO)[C@H]2Cn3c(cccc3=O)[C@H]2N1C(=O)C1CCC1	3	14	-1.7	i
CCN(CC)C(=O)[C@H]1C[C@@H]2[C@H](C[C@@H](c3ccccc3)[C@H]1C)N(c1ccc(F)cc1)C(=O)N2C/C=C(\C)CCC=C(C)C	17	13	3.6	x
C[C@H](CO)N1C[C@H](C)[C@H](CN(C)C)Oc2ccc(NS(C)(=O)=O)cc2C1=O	-1	2	-2.3	i
Cc1cccc(NC(=O)CNC(=O)[C@H](CCc2ccccc2)NC(=O)[C@H]2O[C@@H](n3cnc4c(N)ncnc43)[C@H](O)[C@@H]2O)c1C	21	16	3.2	i
COc1ccccc1CN1[C@H](CO)[C@@H]2c3ccccc3N(C(=O)c3cccnc3)C[C@@H]21	-5	-13	-2.5	i
O=C(CCN1CCCCC1)N[C@H]1CC[C@H](CCn2cc(-c3cccc(F)c3)nn2)O[C@@H]1CO	2	-3	-2.4	i
C/C=C/c1cnc2c(c1)C(=O)N([C@@H](C)CO)C[C@H](C)[C@@H](CN(C)C(=O)NC1CCCCC1)O2	3	12	-3.6	i
(further entries)
SMILES	Ecoli rRNA inh	Ecoli rRNA inh OD600	Ecoli rRNA inh RFP	FGF22 binding
COc1ccc(C#Cc2ccc([C@H]3[C@@H](CO)N4C(=O)CN(C(=O)NC(C)C)C[C@@H]34)cc2)cc1	2	10	-1.5	i
O=C(C[C@@H]1C[C@H]2c3cc(NC(=O)Cc4ccncc4)ccc3O[C@H]2[C@@H](CO)O1)NCCN1CCCCC1	9	8	1.0	i
O=C(Nc1ccc(F)cc1)N1C[C@H]2[C@@H](c3ccccc31)[C@H](CO)N2C(=O)Cc1ccccc1	1	2	1.6	i
O=C(C[C@H]1CC[C@H]2[C@@H](COC[C@@H](O)CN2Cc2nccs2)O1)N1CCC(Cc2ccccc2)CC1	0	-14	-0.4	i
CCCNC(=O)Nc1ccc2c(c1)C(=O)N(C)C[C@H](OC)[C@H](C)CN(C(=O)c1ccccc1F)[C@H](C)CO2	1	-1	1.7	i
CN1c2ccc(Br)cc2[C@@H]2[C@@H](CCN2S(=O)(=O)c2cccc(F)c2)[C@@H]1CO	-47	-75	-16	i
COc1cccc(S(=O)(=O)N[C@H]2CC[C@@H](CC(=O)NCc3ccccc3)O[C@H]2CO)c1	1	8	-2.3	i
COc1ccc(S(=O)(=O)N(C)C[C@H]2OCc3ccccc3-c3c(n(C)c4ccccc34)C(=O)N([C@@H](C)CO)C[C@@H]2C)cc1	4	8	-0.5	i
CNC[C@@H]1Oc2ccc(NS(=O)(=O)c3ccc(F)cc3)cc2CC(=O)N([C@@H](C)CO)C[C@@H]1C	-4	-4	-1.6	i
COc1ccc(CN(C)C[C@H]2OCCCC[C@H](C)Oc3ccc(NC(=O)Nc4ccc5c(c4)OCO5)cc3C(=O)N([C@@H](C)CO)C[C@@H]2C)cc1	-2	-19	8.8	i
COc1ccc(S(=O)(=O)Nc2ccc3c(c2)C(=O)N([C@H](C)CO)C[C@H](C)[C@@H](CN(C)S(=O)(=O)c2ccc(F)cc2)OCCCC[C@@H](C)O3)cc1	2	6	0.8	i

Of the compounds above, these contain two or more sulfur atoms.
SMILES	Ecoli rRNA inh	Ecoli rRNA inh OD600	Ecoli rRNA inh RFP	FGF22 binding
C[C@@H]1CN([C@H](C)CO)C(=O)c2cc(NS(=O)(=O)c3cccs3)ccc2O[C@H]1CN(C)C(=O)Nc1ccc2c(c1)OCO2	-1	6	0.4	i
COc1ccc(S(=O)(=O)N(C)C[C@H]2Oc3c(NS(=O)(=O)c4ccc(C)cc4)cccc3C(=O)N([C@@H](C)CO)C[C@@H]2C)cc1	-2	-6	1.4	i
COc1ccc(S(=O)(=O)Nc2ccc3c(c2)C(=O)N([C@H](C)CO)C[C@H](C)[C@@H](CN(C)S(=O)(=O)c2ccc(F)cc2)OCCCC[C@@H](C)O3)cc1	2	6	0.8	i

Record cards (already shown).
Results for `COc1ccc(S(=O)(=O)Nc2ccc3c(c2)C(=O)N([C@H](C)CO)C[C@H](C)[C@@H](CN(C)S(=O)(=O)c2ccc(F)cc2)OCCCC[C@@H](C)O3)cc1` : Ecoli rRNA inh = 2; Ecoli rRNA inh OD600 = 6; Ecoli rRNA inh RFP = 0.8; FGF22 binding = i
Results for `CNC[C@@H]1Oc2ccc(NS(=O)(=O)c3ccc(F)cc3)cc2CC(=O)N([C@@H](C)CO)C[C@@H]1C` : Ecoli rRNA inh = -4; Ecoli rRNA inh OD600 = -4; Ecoli rRNA inh RFP = -1.6; FGF22 binding = i
